# RanGTP-Imp inh: inhibitors of RanGTP-importin-beta interaction, primary screen, biochemical, FRET, CFP-Ran, YFP-importin-beta, homogeneous | inhibition, % (concentration not given with the values) | cell-free CFP-Ran/YFP-importin-beta FRET ratio | hit rate 1.1% among 300,000 | AID 2216;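 active = most replicates above 15%; inconclusive = exactly half above 15%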;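 also: 0% = DMSO wells and 100% = Ran loaded with GDP instead of GTP; wells of about 40 µL received 100 nL stock; the first replicate is given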
# Vif A3G: HIV-1 Vif–A3G interaction blockers – biochemical, TR-FRET, GST-Vif 1-94, biotin-A3G peptide, dose response retest, primary screen (AID 1117319); TR-FRET GST-Vif / biotin-A3G peptide binding; higher % means a stronger effect; test concentration not given here; strong numbers were not always called active; one-dose inhibition, %; IC50 in µM for titrated hits; hit rate 0.57% among 260,000;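 active = above the screen mean plus three standard deviations and confirmed in dose response; inconclusive = results disagree or hit not tested in dose response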;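 also: Vif residues 1-94 fused to GST binding biotinylated APOBEC3G peptide 110-148; 0% = full assay without inhibitor and 100% = GST in place of GST-Vif; retest series ran down from 100 µM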
# T cruzi inh: T. cruzi replication inhibition; inhibition, % (no concentration beside the values); T. cruzi beta-gal in NIH3T3, luminescence, 90 h; hit rate 1.4% among 300,000;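 active = mean inhibition across valid replicates above about 55%, limit read from the data; inconclusive = mean below that limit but half or more replicates reach it; inactive = mean below it, under half of replicates reach it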;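 also: signal also drops with host cell toxicity which is not excluded here; 0% = plate median of DMSO wells and 100% = zero luminescence signal; higher percent means less beta-gal luminescence so fewer parasites; stock transfer was 50 nL into about 50 µL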
# Calb FLC: affects C. albicans growth with fluconazole | C. albicans CaCi-2 (fluconazole-resistant clinical isolate) + fluconazole, Alamar Blue growth, 48 h | growth inhibition, % (no concentration beside the values) | hit rate 0.57% among 300,000;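 active = most replicates above 75%; inconclusive = exactly half above 75%; inactive = most below 75%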;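 also: all wells also contain fluconazole at 8 µg/ml as a sub-toxic cotreatment; 0% = median of DMSO wells and 100% = median of geldanamycin control wells; wells of about 8 µL received 7.5 nL stock; the first replicate is given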
# Bfl-1 A1 inh: inhibitors of the anti-apoptotic protein A1, read as caspase activation; MEF A1-2A-BIM cells, Caspase-Glo 3/7 luminescence, 3 h; percent of clofoctol response, vehicle zero; AID 2462; caspase activation, % (test concentration not listed); hit rate 0.066% among 330,000;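 active = over half of replicate activation scores above 10%, or exactly half above 10 with the replicate mean above 10; inconclusive = replicate mean below 10 yet half the replicates above 10; inactive = over half of replicates below 10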;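 also: wells of about 30 µL received 50 nL stock; many hits fall short of the cut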
# AF4-AF9 inh: blocks AF4 peptide binding to human AF9; inhibition, % at 10 µM; AlphaScreen, biotin-AF4 peptide binding to FLAG-AF9; hit rate 0.47% among 350,000; AID 651704; P42568;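 active = every replicate reaching a set inhibition limit, whatever the replicate mean, cut at about 25% in these data; inconclusive = mean inhibition reaches that limit but some replicates miss it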;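 also: 0% = plate neutral control median and 100% = total signal loss; the record names both 10 and 1 µM as test concentration; the first replicate is given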
# Beta cell apopt: beta cell apoptosis inhibition. hit rate 0.8% among 300,000. protection from apoptosis, % (test concentration not listed). INS-1E cytokine-induced death, ATP luminescence, 48 h; percent of positive-control rescue, neutral wells zero. AID 435005;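 active = all replicates at 75% or more, or half of them and the mean; inconclusive = half reach 75% but not the mean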;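 also: 0% = cytokine-treated negative control wells and 100% = positive control rescue; higher means more ATP so stronger rescue from cytokine killing; wells of about 40 µL received 100 nL stock; the first replicate is given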
# LANA-H2B inh: blocks KSHV LANA binding to histone H2A/H2B | AID 2629 | hit rate 0.6% among 320,000 | cell-free LANA-H2A/H2B peptide, fluorescence polarization | Q9QR71 | inhibition, % (test concentration not listed); in the data active = inhibition mostly above about 10%, no sharp cut-off; inactive = mostly below about 6.7%;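 also: stock transfer was 7.5 nL into about 10 µL; 0% = median of vehicle wells and 100% = median of positive control wells; one replicate is shown; the record names a cut of 25% in any replicate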
# Target sequence (Q9QR71 whole entry, looked up): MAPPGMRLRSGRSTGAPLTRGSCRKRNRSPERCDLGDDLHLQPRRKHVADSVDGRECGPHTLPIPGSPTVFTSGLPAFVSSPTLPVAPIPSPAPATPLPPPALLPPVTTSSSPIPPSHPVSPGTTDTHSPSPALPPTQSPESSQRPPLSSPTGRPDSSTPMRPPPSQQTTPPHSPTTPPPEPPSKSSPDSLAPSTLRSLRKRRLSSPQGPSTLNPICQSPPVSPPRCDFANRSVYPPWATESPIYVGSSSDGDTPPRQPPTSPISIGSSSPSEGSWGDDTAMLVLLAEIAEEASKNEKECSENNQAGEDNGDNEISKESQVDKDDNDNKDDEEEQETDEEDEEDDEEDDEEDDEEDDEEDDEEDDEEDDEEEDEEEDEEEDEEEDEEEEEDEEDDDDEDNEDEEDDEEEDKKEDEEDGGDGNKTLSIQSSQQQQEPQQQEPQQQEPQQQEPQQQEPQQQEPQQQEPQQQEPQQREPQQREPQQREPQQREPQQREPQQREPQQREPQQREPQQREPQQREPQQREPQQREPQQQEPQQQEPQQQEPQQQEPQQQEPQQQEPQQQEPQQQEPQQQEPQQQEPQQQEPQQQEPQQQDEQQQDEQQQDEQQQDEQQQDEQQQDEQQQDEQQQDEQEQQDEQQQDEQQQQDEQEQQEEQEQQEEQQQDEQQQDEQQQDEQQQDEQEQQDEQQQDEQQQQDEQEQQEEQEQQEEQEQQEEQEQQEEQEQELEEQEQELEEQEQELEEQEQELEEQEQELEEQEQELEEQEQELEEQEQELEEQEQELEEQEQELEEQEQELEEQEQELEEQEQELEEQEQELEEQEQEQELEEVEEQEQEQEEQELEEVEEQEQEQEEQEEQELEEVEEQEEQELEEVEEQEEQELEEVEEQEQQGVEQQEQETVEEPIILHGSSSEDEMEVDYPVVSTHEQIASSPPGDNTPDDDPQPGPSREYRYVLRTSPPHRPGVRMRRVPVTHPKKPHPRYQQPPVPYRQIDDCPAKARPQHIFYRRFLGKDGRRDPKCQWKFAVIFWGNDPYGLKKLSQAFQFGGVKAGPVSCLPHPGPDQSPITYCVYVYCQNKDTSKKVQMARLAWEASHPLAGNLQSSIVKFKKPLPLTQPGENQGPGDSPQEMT
# The depositor's hits bear a star; ? = inconclusive; nt = no result given. Not a hit list; 4.3% or so of the library scored in one or more.
SMILES,RanGTP-Imp inh,Vif A3G,T cruzi inh,Calb FLC,Bfl-1 A1 inh,AF4-AF9 inh,Beta cell apopt,LANA-H2B inh
O=C(Nc1ccc(C(=O)N2CCN(c3ccccn3)CC2)cc1)c1ccc(Br)o1,0.6,nt,8,-3,-0.3,nt,2,5.4
CC(=O)c1cccc(NC(=O)CC2S/C(=N/N=C3CCCCCC3)NC2=O)c1 (stereo not given),0.7,nt,8,2,0.0,-5.7,-8,-2.6
O=C(C1CCN(S(=O)(=O)c2cnc[nH]2)CC1)N1CCN(c2ncccn2)CC1,?,-7%,-13,2,-0.4,nt,2,17*
O=C(NCCNc1ccc([N+](=O)[O-])cc1C(F)(F)F)c1ccccc1F,-18,2%,9,24,-0.4,nt,5,2.0
CC1CCCCC1NC(=O)COC(=O)c1ccc2c(=O)n3c(nc2c1)CCC3 (stereo not given),nt,nt,nt,nt,0.1,1.3,-2,4.3
COc1cc(NC(=O)c2cc(S(=O)(=O)N3CCCCC3)ccc2N2CCOCC2)cc(OC)c1,-1.9,nt,?,-13,1.3,4.7,-1,-2.2
Cc1c(C(=O)NCc2ccc3c(c2)cc(C)n3C)cccc1[N+](=O)[O-],-0.1,0%,3,-5,nt,4.3,1,-4.5
CC1CCN(CC(=O)N2c3ccccc3CCc3ccccc32)CC1,-0.3,-5%,10,5,0.2,nt,2,-0.4
Cc1ccc(NC(=S)NC(=O)/C=C/c2ccco2)c(O)c1,1.8,?,-23,17,-0.3,0.5,-4,-2.3
CC(C)S(=O)(=O)CC(=O)c1ccc(Cl)cc1,7.8,-8%,-17,44,0.0,0.5,-2,-1.2
CCOc1cc(/C=C2\N=C(SC(C)C(N)=O)N(c3ccc(OC(F)F)cc3)C2=O)ccc1O (stereo not given),8.3,nt,-15,14,0.0,3.2,17,-52
CCNC(=O)c1ccc(CSc2ccc(Cl)cc2)cc1,0.2,nt,-5,11,-0.5,-2.9,-4,1.5
C=CCn1c(O)c(N=NC(=S)Nc2cccc(OC)c2)c2ccccc21,-1.9,16%,59*,45,-1.0,nt,59,-0.3
O=C(O)c1ccc2c(c1)C(=O)N(c1cccc(C(=O)/C=C/c3ccccc3)c1)C2=O,0.5,nt,3,-7,-1.1,2.1,-2,0.2
C/C(Cn1cnc([N+](=O)[O-])n1)=N\NC(=O)c1ccc(Br)cc1,-0.6,-4%,41,0,-0.4,0.4,3,0.1
Cn1c(=O)oc2cc(S(=O)(=O)NCc3ccccn3)ccc21,-1.8,23%,4,-1,0.8,-2.3,6,-1.2
CC(=O)Nc1ccc2c(c1)ncn2C,-2.9,-5%,5,-16,0.7,nt,-5,-2.5
O=C(CSc1ccc(-c2cccnc2)nn1)Nc1ccccc1,0.2,-2%,-10,0,1.3,-0.2,-6,3.6
CCc1ccc(-c2cc(C(=O)NN3CCOCC3)c3ccccc3n2)cc1,0.1,-3%,0,35,1.3,nt,6,-0.9
COc1ccc(-c2cc(C)no2)cc1S(=O)(=O)N(C)c1cccc(C)c1,2.6,0%,21,92*,-0.7,1.6,-5,-2.9
CCOC(=O)N1CCC(N(CCN(C)C)C(=S)Nc2cc(C)cc(C)c2)CC1,1.6,-2%,-24,3,0.1,-5.0,-10,-1.9
O=S(=O)(c1ccccc1)N1N=C(c2ccccc2)CC1c1ccccc1 (stereo not given),5.6,-5%,nt,13,0.8,0.6,3,2.5
Cc1ccc2cccc(Oc3ccc([N+](=O)[O-])cc3[N+](=O)[O-])c2n1,-5.3,11%,10,-6,0.2,nt,7,1.3
O=[N+]([O-])c1cccc(S(=O)(=O)Nc2ccc(S(=O)(=O)NCC3CCCO3)cc2)c1 (stereo not given),4.8,nt,1,4,0.2,-1.6,0,-2.8
CC1CCN(C(=S)NC(=O)c2ccccc2)CC1,-0.2,0%,-67,4,-1.1,nt,-1,5.0
Cc1cc(OCc2cc(C(=O)N3CCCCCC3)no2)cc(C)c1Cl,-0.9,nt,9,-6,-0.1,-1.8,-4,-19
CC(=O)Nc1ccc(S(=O)(=O)NCCC(=O)OCC(=O)NCc2ccccc2)cc1,nt,nt,nt,nt,-0.1,1.0,-5,1.0
COc1ccc(NC(=O)CCCCC(=O)Nc2ccc(OC)cc2OC)c(OC)c1,3.9,nt,3,0,-0.2,-0.6,-2,0.0
COc1cccc(C2NC(=O)c3ccccc3O2)c1OCc1ccccc1F (stereo not given),2.0,-13%,-7,4,0.2,2.6,-1,-2.5
O=C(Oc1ccnc2cc(Cl)ccc12)N1CCCCCC1,3.5,-4%,12,11,0.7,nt,1,2.2
c1ccc(-c2csc(-n3cccn3)n2)cc1,-1.5,-6%,-14,-38,-1.4,-1.7,2,4.2
COCCCn1c(SCc2cc(=O)[nH]c3ccccc23)nnc1-c1ccco1,0.4,0%,-5,-3,0.5,nt,nt,-9.6
O=C(NC1CCNCC1)C1CCCCC1,-8.4,nt,6,-1,-5.3,-1.3,7,-3.3
O=C(Nc1ccc([N+](=O)[O-])cc1)C(=O)Nc1cccc(C(=O)O)c1,7.3,2%,9,3,-8.1,-27,27,0.3
CSc1cccc(NC(=O)C(=O)NCc2ccccc2)c1,0.0,-12%,-8,-7,-0.7,-0.4,-4,0.9
C=CCN(C(=O)c1csnn1)C(C(=O)NC1CCCC1)c1ccccc1F (stereo not given),7.3,-4%,-9,2,-0.4,1.8,2,1.6
Cc1ccc2nc(NC(=O)c3ccc4ncsc4c3)sc2c1,2.8,-6%,5,-16,-1.1,-3.1,9,-3.0
COCCCNC(=O)c1cc(S(=O)(=O)N2CCOCC2)ccc1SCc1cccc(OC)c1OC,-0.6,-13%,20,-9,-0.2,-1.3,1,0.6
O=C(NC1CCCCCC1)c1nnc(Cc2ccc(Cl)cc2)o1,-4.1,6%,-11,-4,-0.2,5.5,-5,-0.2
COc1ccccc1N(Cc1ccccc1)S(=O)(=O)c1cccc(C(=O)NCC2CCCO2)c1 (stereo not given),nt,7%,nt,nt,-1.6,0.6,2,-5.7
Cc1ccc(NC(=O)c2ccc(Cl)nc2)cc1S(=O)(=O)N1CCOCC1,nt,-6%,nt,nt,0.8,9.3,-9,12
CCc1c(C)nc(SCCOc2ccc(OC(C)C)cc2)[nH]c1=O,-0.1,1%,-9,-5,0.7,nt,-2,1.2
COc1ccc(CCN(C)Cc2ccc(C(=O)Nc3ccccc3)cc2)cc1OC,3.2,nt,35,-2,-1.8,2.6,-2,1.5
CCNCCNc1ccc(Cl)cc1[N+](=O)[O-],2.3,nt,0,11,0.9,nt,-2,1.6
COc1ccc(C(c2nnnn2C(C)(C)C)N2CCN(C)CC2)cc1OC (stereo not given),-1.7,?,-1,-3,-0.1,nt,3,0.0
Cc1ccccc1C(=O)NNC(=O)c1cccn1C,9.8,1%,-7,nt,-1.4,-9.3,-4,2.0
O=C(CN1CCCC1c1cccs1)Nc1cc(S(=O)(=O)N2CCCC2)ccc1Cl (stereo not given),nt,1%,nt,nt,-0.8,0.8,-8,-5.6
CN(CC(=O)Nc1ccc(N2CCOCC2)cc1)C(=O)c1ccc(CS(C)(=O)=O)cc1,nt,5%,nt,nt,0.1,-14,-10,0.7

# Not a retest: an excerpt of the list.
SMILES,RanGTP-Imp inh,Vif A3G,T cruzi inh,Calb FLC,Bfl-1 A1 inh,AF4-AF9 inh,Beta cell apopt,LANA-H2B inh
CSc1cccc(NC(=O)C(=O)NCc2ccccc2)c1,0.0,-12%,-8,-7,-0.7,-0.4,-4,0.9
C=CCN(C(=O)c1csnn1)C(C(=O)NC1CCCC1)c1ccccc1F (stereo not given),7.3,-4%,-9,2,-0.4,1.8,2,1.6
Cc1ccc2nc(NC(=O)c3ccc4ncsc4c3)sc2c1,2.8,-6%,5,-16,-1.1,-3.1,9,-3.0
COCCCNC(=O)c1cc(S(=O)(=O)N2CCOCC2)ccc1SCc1cccc(OC)c1OC,-0.6,-13%,20,-9,-0.2,-1.3,1,0.6
O=C(NC1CCCCCC1)c1nnc(Cc2ccc(Cl)cc2)o1,-4.1,6%,-11,-4,-0.2,5.5,-5,-0.2
COc1ccccc1N(Cc1ccccc1)S(=O)(=O)c1cccc(C(=O)NCC2CCCO2)c1 (stereo not given),nt,7%,nt,nt,-1.6,0.6,2,-5.7
Cc1ccc(NC(=O)c2ccc(Cl)nc2)cc1S(=O)(=O)N1CCOCC1,nt,-6%,nt,nt,0.8,9.3,-9,12
CCc1c(C)nc(SCCOc2ccc(OC(C)C)cc2)[nH]c1=O,-0.1,1%,-9,-5,0.7,nt,-2,1.2
COc1ccc(CCN(C)Cc2ccc(C(=O)Nc3ccccc3)cc2)cc1OC,3.2,nt,35,-2,-1.8,2.6,-2,1.5
CCNCCNc1ccc(Cl)cc1[N+](=O)[O-],2.3,nt,0,11,0.9,nt,-2,1.6
COc1ccc(C(c2nnnn2C(C)(C)C)N2CCN(C)CC2)cc1OC (stereo not given),-1.7,?,-1,-3,-0.1,nt,3,0.0
Cc1ccccc1C(=O)NNC(=O)c1cccn1C,9.8,1%,-7,nt,-1.4,-9.3,-4,2.0

# (next part)
SMILES,RanGTP-Imp inh,Vif A3G,T cruzi inh,Calb FLC,Bfl-1 A1 inh,AF4-AF9 inh,Beta cell apopt,LANA-H2B inh
CN(C)c1oc(-c2ccco2)nc1S(=O)(=O)c1ccc(Br)cc1,nt,10%,nt,nt,0.0,3.4,-3,-0.3
CCCn1c(SCC(=O)N2CCCCC2)nnc1-c1ccccn1,?,-9%,-7,-2,0.8,-2.3,-9,1.9
CC1(C)Cc2c(C#N)c(N3CCN(C(=O)c4ccco4)CC3)nc(Cc3ccccc3)c2CO1,8.1,26%,5,-4,-2.4,nt,14,7.4
Clc1ccc(N2CCN(/N=C/c3cccnc3)CC2)cc1,-0.6,-7%,7,11,-0.9,0.6,3,-2.4
Cc1ccc(C2=CC(=O)C[C@H](c3ccc(F)cc3)C2)cc1,nt,nt,nt,nt,0.4,-3.3,-2,-3.0
Cc1sc2ncn(CC(=O)N3CCN(c4ccccn4)CC3)c(=O)c2c1S(=O)(=O)N1CCCCC1,5.8,-7%,9,-8,0.7,3.7,0,-9.4
O=C(COC(=O)C1CC(=O)N(Cc2ccco2)C1)Nc1ccc(F)cc1F (stereo not given),nt,nt,nt,nt,1.2,0.6,-3,-4.2
